# Screening results as filed in PubChem.
# rRNA inh HTS: inhibitors of bacterial rRNA selective over humanized ribosomes; E. coli WT GFP vs humanized-ribosome RFP mutants, fluorescence, 24 h; hits give low values; DMSO median 0, no signal -100; GFP signal change (wild-type ribosome), % (no concentration beside the values); actives 1.6% (n = 350,000);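 active means significant combined selectivity score with lowered wild-type GFP, culture density cut under 30%, mutant RFP and density less affected; inactive means any of these conditions unmet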; further: one replicate is shown; some compounds called inactive have numbers as strong as hits
# MLL AF4-AF9 inh: MLL-AF4/AF9 protein interaction inhibition; actives 0.47% (n = 350,000); inhibition, % at 10 µM; AlphaScreen, biotin-AF4 peptide binding to FLAG-AF9; AID 651704; P42568;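 active means every replicate reaching a set inhibition limit, whatever the replicate mean, cut at about 25% in these data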;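 further: 0% = plate neutral control median and 100% = total signal loss; the record names both 10 and 1 µM as test concentration; the first replicate is given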
# Target sequence (P42568 whole entry, looked up): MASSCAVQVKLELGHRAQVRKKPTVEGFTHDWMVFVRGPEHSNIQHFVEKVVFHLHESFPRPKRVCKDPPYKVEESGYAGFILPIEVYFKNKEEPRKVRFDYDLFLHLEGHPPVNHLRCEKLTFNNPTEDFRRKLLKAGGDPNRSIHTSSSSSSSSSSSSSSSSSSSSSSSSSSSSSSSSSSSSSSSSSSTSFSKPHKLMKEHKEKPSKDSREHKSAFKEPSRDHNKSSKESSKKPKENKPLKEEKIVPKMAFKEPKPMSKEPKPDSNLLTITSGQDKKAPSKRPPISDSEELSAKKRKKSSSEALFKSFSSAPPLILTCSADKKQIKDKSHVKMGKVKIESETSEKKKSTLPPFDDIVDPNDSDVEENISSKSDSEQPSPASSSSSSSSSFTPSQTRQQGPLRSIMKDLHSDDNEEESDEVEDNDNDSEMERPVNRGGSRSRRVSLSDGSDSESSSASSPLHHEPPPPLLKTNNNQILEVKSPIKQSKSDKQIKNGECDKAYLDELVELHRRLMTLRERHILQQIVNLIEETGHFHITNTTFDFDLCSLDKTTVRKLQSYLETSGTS
# rRNA inh HTS OD600: second read-out of rRNA inh HTS, no call of its own (marks repeat the call); OD600 change, %; measured here: OD600 growth;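 optical density of the mix in the first replicate; 0 = DMSO median and -100 = no signal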
# rRNA inh HTS RFP: further read-out of rRNA inh HTS, marked with its call; RFP signal change, %; measured here: RFP humanized mutant strains;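 first replicate; 0 = DMSO median and -100 = no signal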
# The depositor's hits bear a star.
mol	rRNA inh HTS	rRNA inh HTS OD600	rRNA inh HTS RFP	MLL AF4-AF9 inh
CC(C)CC#Cc1ccc([C@@H]2[C@H](CO)N3CCCCN(C(=O)Nc4ccccc4)C[C@@H]23)cc1	-53	-79	-14	19
COCC(=O)N1[C@@H]2c3ccc(-c4ccncc4)c(=O)n3C[C@@H]2[C@@H](CO)[C@@H]1C(=O)Nc1ccccc1	-1	2	-2.0	-0.7
CCCC(=O)Nc1ccc2c(c1)C(=O)N(C)[C@@H]1CC[C@@H](CC(=O)NCC3CC3)O[C@H]1CO2	2	5	0.2	-3.0
C[C@H]1CN([C@@H](C)CO)S(=O)(=O)c2ccc(C#CCN(C)C)cc2O[C@@H]1CN(C)Cc1ccc2c(c1)OCO2	-7	-10	-0.7	12
CO[C@@H]1CN(C)C(=O)c2cc(NC(=O)NC(C)C)ccc2OC[C@H](C)N(C(=O)C2CCC2)C[C@H]1C	0	1	0.9	-0.8
COc1ccc2c3c([nH]c2c1)[C@@H](CO)N(C(=O)CC1CC1)CC31CN(C(=O)CC2CC2)C1	0	4	-2.7	0.7
COc1ccc(CN(C)C[C@H]2OCCCC[C@@H](C)Oc3ccc(NS(=O)(=O)c4ccc(Cl)cc4)cc3C(=O)N([C@@H](C)CO)C[C@H]2C)cc1	-20	-56	33	9.8
O=C(C1CCCCC1)N1CC(=O)N2[C@H](C1)[C@@H](c1ccc(-c3ccccc3F)cc1)[C@@H]2CO	-1	-19	18	2.4
c1ccc2c(c1)ncn2-c1cncnc1	6	11	-3.8	-2.8
C[C@@H]1CN([C@H](C)CO)C(=O)c2cc(NC(=O)CCC(F)(F)F)ccc2O[C@H]1CN(C)Cc1ccc(C(=O)O)cc1	5	7	-2.2	-4.4
COc1ccc(Nc2nc(-c3c(C)nc4ncccn34)cs2)cc1	-10	-12	-1.4	10
CCCN(C)C[C@@H]1OCCCC[C@H](C)Oc2ccc(NC(=O)CCC(F)(F)F)cc2C(=O)N([C@@H](C)CO)C[C@@H]1C	5	4	0.7	-2.0
C[C@@H]1CN([C@@H](C)CO)C(=O)Cc2cc(NC(=O)C3CC3)ccc2O[C@@H]1CN(C)S(=O)(=O)c1cn(C)cn1	6	12	1.4	-1.7
N#C[C@H]1[C@H](c2ccccc2C2=CCCCC2)[C@H](CO)N1C(=O)c1ccccn1	-19	-25	-7.1	-10
C[C@@H]1CCCCO[C@@H](CN(C)Cc2ccccc2)[C@H](C)CN([C@@H](C)CO)C(=O)c2cc(NC(=O)C3CCCCC3)ccc2O1	2	-2	-5.2	-1.3
CC(C)NC(=O)N(C)C[C@H]1Oc2ccc(NC(=O)c3ccncc3)cc2C(=O)N([C@H](C)CO)C[C@H]1C	-2	6	-2.3	-3.0
Cc1ccc(-c2ccc(C3[C@H]4CNC[C@@H]3N4S(=O)(=O)c3ccccc3F)cc2)cc1 (some centres not stated)	-8	-48	22	-1.7
COc1ccccc1NC(=O)N1[C@H](C#N)[C@H](c2ccccc2)[C@H]1CO	3	8	-0.8	1.7
OC[C@@H]1[C@H](c2ccc(C3=CCCCC3)cc2)[C@@H](CNC2CCCC2)N1CC1CC1	-20	-56	41	7.2
CC(C)CNC(=O)C1(C)CCCN1C(=O)CSc1ccccc1 (configuration not stated)	8	7	3.8	-8.6
C[C@@H]1CN([C@H](C)CO)C(=O)Cc2cc(N(C)C)ccc2O[C@H]1CN(C)S(=O)(=O)c1ccccc1	0	-2	-1.7	0.4
O=C(C[C@@H]1CC[C@H]2[C@@H](COC[C@H](O)CN2C(=O)Nc2ccc(C(F)(F)F)cc2)O1)NCC1CC1	-64	-79	-23	-0.8
CN1CCN(C(=O)C[C@H]2CC[C@@H](NS(=O)(=O)c3cccc(F)c3)[C@@H](CO)O2)CC1	2	1	-1.5	-1.3
Cc1noc(C)c1S(=O)(=O)N(C)C[C@@H]1Oc2ccc(NS(=O)(=O)c3cccs3)cc2C(=O)N([C@@H](C)CO)C[C@@H]1C	-2	-6	4.1	2.6
C[C@H](O)C#Cc1ccc2c(c1)O[C@H](CN(C)Cc1ccc(-c3ccccc3)cc1)[C@@H](C)CN([C@@H](C)CO)S2(=O)=O	-4	3	2.0	0.9
CO[C@@H]1CN(C)C(=O)c2ccc(NC(=O)NC(C)C)cc2OC[C@H](C)N(C(=O)CC2CC2)C[C@H]1C	1	2	-1.9	-3.2
COc1ccc(S(=O)(=O)N(C)C[C@@H]2OCCCC[C@H](C)Oc3ccc(NC(=O)Nc4c(C)noc4C)cc3C(=O)N([C@H](C)CO)C[C@@H]2C)cc1	0	4	1.8	3.2
C[C@H](CO)N1C[C@H](C)[C@@H](CN(C)CC2CC2)Oc2ccc(NC(=O)CCCN(C)C)cc2CC1=O	7	11	-0.8	-3.1
CC(=O)NC[C@@H]1[C@@H](c2ccc(C#Cc3ccccc3F)cc2)[C@@H](CO)N1C(C)=O	-1	-1	0.8	-1.0
COc1ccc2c3c(n(C)c2c1)[C@H](CO)N(Cc1ccc2c(c1)OCO2)CC31CCN(C(=O)c2ccc3c(c2)OCO3)CC1	1	4	2.0	-2.7

# Next structures follow.
mol	rRNA inh HTS	rRNA inh HTS OD600	rRNA inh HTS RFP	MLL AF4-AF9 inh
C[C@@H]1CN([C@H](C)CO)S(=O)(=O)c2ccc(C#CC3CCCCC3)cc2O[C@@H]1CN(C)Cc1cccnc1	-5	-10	5.5	6.8
Cc1ccc(S(=O)(=O)Nc2ccc3c(c2)C(=O)N([C@H](C)CO)C[C@H](C)[C@H](CN(C)C(=O)Nc2c(C)noc2C)OCCCC[C@H](C)O3)cc1	-1	-1	-1.4	-4.0
CO[C@H]1CN(C)C(=O)c2cc(NS(=O)(=O)c3cccc(F)c3)ccc2OC[C@H](C)N(Cc2cc(F)ccc2F)C[C@H]1C	-1	-9	5.8	3.2
COc1cccc(S(=O)(=O)N2C[C@@H](O)COC[C@@H]3O[C@@H](CC(=O)N4CCOCC4)CC[C@H]32)c1	5	-1	0.2	0.0
O=C(CN1CCOCC1)NCC[C@H]1CC[C@H](NS(=O)(=O)c2ccc(F)cc2)[C@H](CO)O1	1	6	-0.7	4.1
C[C@@H]1CCCCO[C@H](CN(C)C(=O)Nc2ccc(F)cc2)[C@H](C)CN([C@@H](C)CO)C(=O)c2cc(NS(=O)(=O)c3ccc(Cl)cc3)ccc2O1	0	-2	-2.4	-3.9
CCC(=O)N1CC2(C1)CN(C(=O)c1ccccn1)[C@@H](CO)c1c2c2ccc(OC)cc2n1C	4	2	0.1	-5.3
C[C@H]1CN([C@@H](C)CO)C(=O)c2cccc(NC(=O)Nc3ccc(F)cc3)c2O[C@@H]1CN(C)C(=O)Nc1cccc2ccccc12	-3	4	0.8	0.5
COc1ccccc1NS(=O)(=O)c1ccc(C(=O)NCC(c2ccccc2OC)N2CCCC2)cc1 (configuration not stated)	3	13	2.0	1.8
CCC(=O)N1CCC1(C)C(=O)Nc1cccc(OC)c1OC (configuration not stated)	7	5	-1.7	-1.3
CCCCNC(=O)C[C@@H]1C[C@@]2(C(=O)OCC)CCC=C2N(Cc2ccc(Cl)cc2Cl)C1=O	-12	-26	-5.1	4.1
COCCNC(=O)C1(C)CCCN(Cc2ccc3ccccc3c2Br)C1 (configuration not stated)	-28	-48	-7.5	-3.8
O=C(C[C@H]1CC[C@H]2[C@@H](COC[C@@H](O)CN2C(=O)c2ccncc2)O1)NCc1cccc(F)c1	3	3	-2.0	-19
COc1ccc(CN(C)C[C@@H]2OCCCC[C@H](C)Oc3ccc(NC(=O)Nc4c(C)noc4C)cc3C(=O)N([C@@H](C)CO)C[C@@H]2C)cc1	4	4	0.2	2.0
CC1(C(=O)NS(=O)(=O)c2ccc(Br)cc2)CCN1C(=O)Cc1cccs1 (configuration not stated)	12	28	1.5	-2.6
CCCOc1ccc(C(=O)CCC(=O)OCC(=O)N2CCN(S(=O)(=O)c3ccc(C)cc3C)CC2)cc1	13	1	4.0	1.0
CN1c2ccc(C#Cc3cccnc3)cc2[C@@H]2[C@@H](CCN2S(=O)(=O)c2cccc(F)c2)[C@@H]1CO	-2	1	-2.1	2.0
C[C@@H]1CN([C@@H](C)CO)C(=O)c2cccc(NC(=O)C3CC3)c2O[C@H]1CN(C)Cc1ccc2c(c1)OCO2	-3	-5	-0.3	-1.6
O=C(Nc1ccc(Cl)c(Cl)c1)N[C@H]1CC[C@H](CCn2cc(C3CCCCC3)nn2)O[C@H]1CO	-7	-31	9.7	5.7
COc1ccc(-c2noc(-c3csc([C@@H]4O[C@H](CO)[C@H](O)[C@H](O)[C@H]4O)n3)n2)cc1OC	-3	6	0.9	-2.7
O=C(C[C@@H]1CC[C@H]2[C@@H](COC[C@H](O)CN2C(=O)Nc2cccc(F)c2)O1)NCc1ccccc1Cl	-14	-23	-1.5	0.3
O=C(O)C[C@H]1C[C@H]2c3cc(NC(=O)Nc4ccc(F)cc4)ccc3O[C@H]2[C@@H](CO)O1	1	-2	-2.1	-34
CC(=O)N1CC[C@@H]2[C@H]1c1cc(-c3ccc(C#N)cc3)ccc1N(C)[C@@H]2CO	9	4	-2.3	-2.6
COc1ccc([C@H]2C[C@@H](O)[C@H](n3cc(C4CC4)nn3)CN2Cc2cccs2)cc1	-3	-10	5.8	-2.8
C[C@@H]1CN([C@@H](C)CO)C(=O)c2cccc(NC(=O)CCCCCC(=O)Nc3ccccc3N)c2O[C@@H]1CN(C)S(=O)(=O)c1cn(C)cn1	4	5	-4.2	-0.9
COCCCN1C(=O)C(CC(=O)NCc2ccco2)CC(C(=O)N(C(C)C)C(C)C)=C1C (configuration not stated)	9	17	0.0	0.8
C[C@@H]1CN([C@H](C)CO)S(=O)(=O)c2ccc(C#CC3CC3)cc2O[C@@H]1CN(C)Cc1cccc(F)c1	-5	-24	7.4	6.1
Cc1cc(F)ccc1-c1cc(C(=O)NCc2ccco2)[nH]n1	6	-9	-6.6	-2.7
Cc1ccc(S(=O)(=O)N2C[C@@H](O)COC[C@@H]3O[C@@H](CC(=O)N[C@H]4CCN(Cc5ccccc5)C4)CC[C@H]32)cc1	0	-8	-2.0	1.2
N#Cc1ccc(-c2ccc3c(c2)[C@H]2[C@H](CCN2C(=O)C2CC2)[C@@H](CO)N3)cc1	-3	-9	0.5	-4.1

# An excerpt of these results, with the structure last.
rRNA inh HTS	rRNA inh HTS OD600	rRNA inh HTS RFP	MLL AF4-AF9 inh	SMILES
12	28	1.5	-2.6	CC1(C(=O)NS(=O)(=O)c2ccc(Br)cc2)CCN1C(=O)Cc1cccs1 (configuration not stated)
13	1	4.0	1.0	CCCOc1ccc(C(=O)CCC(=O)OCC(=O)N2CCN(S(=O)(=O)c3ccc(C)cc3C)CC2)cc1
-2	1	-2.1	2.0	CN1c2ccc(C#Cc3cccnc3)cc2[C@@H]2[C@@H](CCN2S(=O)(=O)c2cccc(F)c2)[C@@H]1CO
-3	-5	-0.3	-1.6	C[C@@H]1CN([C@@H](C)CO)C(=O)c2cccc(NC(=O)C3CC3)c2O[C@H]1CN(C)Cc1ccc2c(c1)OCO2
-7	-31	9.7	5.7	O=C(Nc1ccc(Cl)c(Cl)c1)N[C@H]1CC[C@H](CCn2cc(C3CCCCC3)nn2)O[C@H]1CO
-3	6	0.9	-2.7	COc1ccc(-c2noc(-c3csc([C@@H]4O[C@H](CO)[C@H](O)[C@H](O)[C@H]4O)n3)n2)cc1OC
-14	-23	-1.5	0.3	O=C(C[C@@H]1CC[C@H]2[C@@H](COC[C@H](O)CN2C(=O)Nc2cccc(F)c2)O1)NCc1ccccc1Cl

# Additional records.
mol	rRNA inh HTS	rRNA inh HTS OD600	rRNA inh HTS RFP	MLL AF4-AF9 inh
C[C@@H]1CCCCO[C@H](CN(C)C(=O)Nc2ccccc2)[C@@H](C)CN([C@@H](C)CO)C(=O)c2cc(NC(=O)C3CCCCC3)ccc2O1	-4	-12	0.1	3.8
C[C@H]1CN([C@@H](C)CO)C(=O)c2cc(NC(=O)Nc3cccc4ccccc34)ccc2O[C@H]1CN(C)Cc1ccc(Cl)c(Cl)c1	1	4	-1.8	-2.0
CCS(=O)(=O)N1[C@H](C#N)[C@H](c2ccc(C#CC(C)C)cc2)[C@@H]1CO	7	-18	15	-0.6
CC(C)C[C@H]1COc2cc(Br)ccc2S(=O)(=O)N1Cc1ccc(F)cc1F	5	15	-5.1	-5.3
COc1ccc2c3c([nH]c2c1)[C@H](CO)N(Cc1cccnc1)CC31CCN(C(=O)CN(C)C)CC1	2	9	3.1	0.2
CCNC(=O)C[C@@H]1C=C[C@@H](NC(=O)C2CC2)[C@@H](CO)O1	3	4	-0.5	-2.0
Cc1ccc(C)c(C(O)c2ncc(-c3ccc(Cl)cc3)[nH]2)c1 (configuration not stated)	-61	-80	-19	-0.1
C[C@H]1CN([C@@H](C)CO)C(=O)c2cccc(N(C)C)c2O[C@H]1CN(C)C(=O)Nc1ccc(F)cc1	7	12	0.1	-1.7
CO[C@H]1CN(C)C(=O)c2cc(NC(=O)c3ccccc3)ccc2OC[C@H](C)N(C(C)=O)C[C@H]1C	1	-3	-0.9	2.0
COc1ccc(S(=O)(=O)N(C)C[C@@H]2Oc3c(NC(=O)Nc4cccc5ccccc45)cccc3C(=O)N([C@H](C)CO)C[C@@H]2C)cc1	4	18	1.9	0.8

# These rows are one share of the data. The share of hits here may be higher or lower than overall.
